gsp ag: qHTS for Agonist of gsp, the Etiologic Mutation Responsible for Fibrous Dysplasia/McCune-Albright Syndrome: qHTS; gsp mutant cells, cAMP HTRF, 30 min; control for the full effect not named in the record; Potency, µM (doses to about 76.9 µM), inactives show at the top dose activation (cAMP increase), most hits filed as activators; hit rate 0.13% among 340,000; active = well fitted activation curve with a large enough effect; inconclusive = small, poorly fitted or top-dose-only effect, or another doubt; inactive = no such curve, though single readings can be large or run the other way; cell line not stated here;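 also: phosphodiesterase inhibitor Ro 20-1724 added with compounds to block cAMP breakdown; potency is read from the fitted curve at half-maximal effect; nearly all actives have a fitted effect of over 60% in size; about a fifth of the inactives were tested at one dose only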
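Cells in DMEM/10% FBS with G418 were pretreated with compounds in DMSO plus […] (300 uM stock) for 30 min at 37C. cAMP was measured by HTRF (cAMP-d2 plus anti-cAMP antibody-K) after 30 min at room temperature.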
TRPV1 PAM: HTS Assay for Compounds that Act as Potentiators of the Vanilloid Receptor 1 | hit rate 0.02% among 320,000 | potentiation, % at 8.33 µM | AID 540277, 2011 | TRPV1-expressing cells, Fluo-8 calcium influx, capsaicin EC20 potentiation; host cell line not named in the record; control for the full effect not named in the record | Transient receptor potential cation channel subfamily V member 1 (Homo sapiens), Q8NER1; active means potentiation above 80%; inconclusive means 30% to 80%; inactive means below 30%; also: 0% is about no effect
Target sequence (Q8NER1 whole entry, looked up): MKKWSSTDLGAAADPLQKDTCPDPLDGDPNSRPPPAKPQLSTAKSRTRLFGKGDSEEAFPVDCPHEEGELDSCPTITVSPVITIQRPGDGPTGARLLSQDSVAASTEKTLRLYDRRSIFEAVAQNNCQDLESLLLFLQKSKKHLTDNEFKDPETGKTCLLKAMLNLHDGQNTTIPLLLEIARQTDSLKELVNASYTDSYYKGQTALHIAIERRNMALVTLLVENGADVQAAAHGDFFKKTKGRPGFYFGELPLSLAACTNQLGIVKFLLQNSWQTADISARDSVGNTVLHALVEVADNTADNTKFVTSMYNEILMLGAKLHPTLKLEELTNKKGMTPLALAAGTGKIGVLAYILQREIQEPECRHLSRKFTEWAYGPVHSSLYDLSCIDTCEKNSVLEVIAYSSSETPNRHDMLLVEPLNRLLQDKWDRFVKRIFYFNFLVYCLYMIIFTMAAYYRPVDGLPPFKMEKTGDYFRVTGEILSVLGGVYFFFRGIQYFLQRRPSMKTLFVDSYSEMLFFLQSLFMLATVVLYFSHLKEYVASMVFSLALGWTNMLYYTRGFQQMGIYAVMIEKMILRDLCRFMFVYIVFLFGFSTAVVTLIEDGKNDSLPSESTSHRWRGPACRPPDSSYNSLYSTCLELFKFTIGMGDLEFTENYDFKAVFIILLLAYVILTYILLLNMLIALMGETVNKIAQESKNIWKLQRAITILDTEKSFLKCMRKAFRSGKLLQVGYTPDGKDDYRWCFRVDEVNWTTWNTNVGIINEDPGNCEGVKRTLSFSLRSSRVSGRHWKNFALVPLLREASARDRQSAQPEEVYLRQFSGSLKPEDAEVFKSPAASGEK
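Fluo-8 calcium influx in TRPV1-expressing cells, kinetic read (ex 480/em 520 nm). Compound added and read 3 min for agonist activity, followed by capsaicin at EC20 final and 2 min further read for enhancement.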
D2 PAM: Beta-Arrestin HTS for Positive Allosteric Modulators of the Human D2 Dopamine Receptor: Potentiators. DiscoveRx D2 beta-arrestin cells, luminescence, 90 min; 100% = 57 uM dopamine signal. potentiation, % (no concentration beside the values). hit rate 0.23% among 360,000. AID 624464, 2012; active = potentiation of 50% or more; inconclusive = 30% to 50%; inactive = 30% or less;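 also: compound concentration not given in the record; tested on top of an EC20 dose of dopamine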
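D2 cells co-treated with compound plus 50 nM dopamine (EC20) for 90 min at 37 deg C to detect potentiation. Beta-arrestin recruitment was read as enzyme-fragment luminescence after 1 h at ambient temperature. Full response was set by 57 uM dopamine.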
ClpP mod: qHTS Assay for Activators of ClpP; AID 651965, 2013; purified B. subtilis ClpP, FRET peptide cleavage, 20 min; ATP-dependent Clp protease proteolytic subunit (Bacillus subtilis (strain 168)), P80244; Potency, µM (top dose mostly 57.5 µM), for the others: at the top dose activity change, negative = active; hit rate 1.9% among 340,000; active = well fitted falling curve with a large enough effect; inconclusive = small, poorly fitted or top-dose-only effect; inactive = no such curve, though single readings can be large or run the other way; also: potency is read from the fitted curve at half-maximal effect; the source files actives as falling curves though it sought activators and does not explain the sign; nearly all actives have a fitted effect of over 65% in size; many hits overshoot -100%
Target sequence (P80244 whole entry, looked up): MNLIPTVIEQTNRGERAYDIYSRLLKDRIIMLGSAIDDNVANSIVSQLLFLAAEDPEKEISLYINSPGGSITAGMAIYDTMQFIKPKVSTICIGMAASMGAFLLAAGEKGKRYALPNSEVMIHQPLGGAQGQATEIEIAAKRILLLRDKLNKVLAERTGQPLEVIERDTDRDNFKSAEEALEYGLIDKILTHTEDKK
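FRET quenching reversal measured ClpP activation: 10 microg/mL B. subtilis ClpP at pH 8 with the FRET-FV decapeptide, read at 430 nm after 320 nm excitation. The 20-min minus 0-min signal was scaled between DMSO/no-enzyme wells and ADEP (5.8 microM final).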
Menin MLL FP FL: qHTS Assay for Inhibitors Targeting the Menin-MLL Interaction in MLL Related Leukemias: Competition With Fluorescein Labeled MLL-derived Peptide | AID 1766, 2009 | 290,000 tested, under 10 active | FP activity change, % at 61.4 µM | Fluorescence polarization, fluorescein-MLL peptide displacement from menin; inconclusive = falling polarisation curve, or a change in total fluorescence; inactive = total fluorescence flat and polarisation flat or rising; no compound was filed as active; the % refers to the polarisation; negative = inhibition;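 also: % of control where 0% means no effect; inhibitors lower the polarisation; unlabelled MLL peptide was the positive control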
Sfp PPTase inh: qHTS Assay for Inhibitors of Bacillus subtilis Sfp phosphopantetheinyl transferase (PPTase) | 4'-phosphopantetheinyl transferase ffp (Bacillus subtilis), Q9F4F7 | Biochemical Sfp PPTase activity, qHTS | Potency, µM, without a hit: max response, negative = inhibition, most hits filed as inhibitors | hit rate 3.5% among 310,000; active = well fitted inhibition curve with a large enough effect; inconclusive = small, poorly fitted or top-dose-only effect, or another doubt; inactive = no such curve, though single readings can be large or run the other way;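 also: the enzyme is Sfp with the accession as filed and its product quenches rhodamine fluorescence; potency is read from the fitted curve at half-maximal effect; 0% = enzyme reaction without inhibitor and -100% = no enzyme wells; top concentration of the series not given in the record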
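With Hepes-Na pH 7.6 buffer containing 10 mM MgCl2, Sfp (15 nM) modified BHQ-2-YbbR (12.5 uM) using rhodamine-CoA (5 uM). Two reads 30 minutes apart at 525/598 nm yielded each well's rate.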
gsp antagonist: qHTS for Antagonists of gsp, the Etiologic Mutation Responsible for Fibrous Dysplasia/McCune-Albright Syndrome: qHTS; gsp-mutant cells, cAMP HTRF, 30 min; control for the full effect not named in the record; Potency, µM (doses to about 76.9 µM), inactives show at the highest dose activity change, negative = inhibition, most hits filed as inhibitors; hit rate 0.4% among 340,000; AID 624288, 2012; active = falling curve of any shape with a large fitted effect; inconclusive = falling curve, mostly with a smaller effect; inactive = flat or rising curve; cell line not stated here;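 also: intracellular cAMP measured with PDE inhibitor Ro 20-1724 present during compound exposure; potency is read from the fitted curve at half-maximal effect; % is scaled to controls: 0 for no effect and ±100 for the full control effect; nearly all actives have a fitted effect of over 65% in size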
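Cells, 2000/well, grown 16–24 h in DMEM 10% FBS with 0.5 mg/ml G418, then compounds plus […] (300 uM addition stock), 30 min at 37C. cAMP read by HTRF (cAMP-d2 and anti-cAMP antibody-K in lysis buffer) after 30 min RT.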
An asterisk follows results filed as active; ? = inconclusive; nt = not tested or not shown; & = joins results of further samples; [ ] = dose if it differs, or a comment.

SMILES	gsp ag	TRPV1 PAM	D2 PAM	ClpP mod	Menin MLL FP FL	Sfp PPTase inh	gsp antagonist
CC(C(=O)Nc1ccccc1)N1CCN(c2ccccn2)CC1 (stereo not given)	?	3	-1	-1.1%	3.4	18%	2%
Cc1ccc(NCN2C(=O)C3C4C=CC(C4)C3C2=O)cc1 (stereo not given)	-27%	-17	-4	1.0%	5.1	0%	4%
CCCOc1ccc(CN(C)c2ncnc(N)n2)cc1	1%[15.4 µM]	8	-4	?	0.7	5%	-10%
CCC(CC)C(=O)OCC(=O)Nc1ccc(S(=O)(=O)N2CCOCC2)cc1OC	0%	10	-3	0.0%	-0.7	-22%	-4%
CC1=NNC(=O)C1CC(=O)N/N=C/c1ccncc1 (stereo not given)	3%[15.4 µM]	-8	-4	nt	0.8	?	1%
CCOc1ccc(CCNC(=O)CCc2nc3ccccc3[nH]2)cc1OCC	-7%	17	-7	nt	-0.2	-27%	-3%
COc1ccc(/C=C/C(=O)Nc2cc(C)nn2-c2nc3ccccc3[nH]2)cc1	14%	-5	7	?	3.8	?	-14%
Cc1ccc(-n2ncc3c(=O)[nH]c(SCC(=O)N4CCOCC4)nc32)cc1	-26%	-14	12	-2.4%	5.0	26%	-9%
CCC1CN(C(=O)N2CCC(C(=O)NCCc3ccc(OC)cc3OC)CC2)c2ccccc2O1 (stereo not given)	-63%[inhibitor]	10	-7	-2.3%	nt	25%	?
CC(=O)c1nn(-c2ccc(Br)cc2)cc1C(=O)c1ccccc1	13%[15.4 µM]	-14	-4	nt	1.6	-4%	9%
Cc1c(NC(=O)COC(=O)Cc2ccc(F)cc2)c(=O)n(-c2ccccc2)n1C	12%[15.4 µM]	-11	-3	nt	nt	nt	1%
NC(=O)NC(=O)COC(=O)CN1C(=O)C2CCCCC2C1=O (stereo not given)	-20%	2	-24	0.6%	-0.2	7%	6%
CCc1ccccc1NC(=O)CCNS(=O)(=O)c1ccc2c(c1)CCC(=O)N2	-33%[inhibitor]	5	-6	0.2%	0.4	16%	-2%
O=C(CCc1ccccc1)C(=O)N1CCCC(C(=O)c2cccc(Cl)c2)C1 (stereo not given)	-2%[15.4 µM]	-1	-8	nt	-5.9	5%	-13%
O=C(CN1CCCC1)Nc1ccc(S(=O)(=O)N2CCCCC2)cc1	-7%	-15	-14	-0.1%	-7.6	6%	10%
CNC(=S)/N=C/NOCc1ccc(Cl)cc1Cl	-17%[15.4 µM]	4	-11	nt	0.8	-4%	-7%
CN1CC(=O)Nc2ccc(F)cc2C1=O	1%	4	1	-0.5%	-2.1	18%	8%
O=C(CC1SCCNC1=O)Nc1ccc(F)c(Cl)c1 (stereo not given)	-18%[15.4 µM]	-9	-4	-2.5%	-3.4	0%	12%
O=S(=O)(NC1C2CC3CC(C2)CC1C3)c1ccccc1 (stereo not given)	-32%[inhibitor]	-13	-5	1.6%	nt	nt	-1%
Cc1nn2c(=O)cc(COC(=O)c3ccc(NC(=O)C(C)(C)C)cc3)nc2s1	2%	6	-11	1.0%	nt	19%	-6%
O=C(CCSc1ccc(F)cc1)Nc1ccc(-n2cnnn2)cc1	-1%	-2	-14	-1.9%	0.4	-12%	-14%
CN1N=C(/C=C/c2ccccc2)CCC1=O	27%[15.4 µM]	16	-7	nt	0.4	22%	-5%
COc1ccc(/C=C(\NC(=O)c2ccc(C)cc2)C(=O)NCC2CCCO2)cc1 (stereo not given)	-43%[inhibitor]	9	-2	-1.6%	4.6	12%	-5%
CC(C)OCCCNC(=O)c1ccccc1NC(=O)C1=CSCCO1	-27%	2	-11	0.5%	nt	4%	-2%
CCc1ccccc1NC(=O)c1cc(-c2ccc3c(c2)OCO3)on1	-18%[15.4 µM]	10	-4	-8.2%	1.1	-3%	5%
CCOC(=O)Cn1c(=N)n(CCOc2ccc(F)cc2)c2ccccc21	-11%[15.4 µM]	0	2	4µM*	3.4	6%	17%
Cc1cc(N2CCCC(C(=O)Nc3ccc4c(c3)CCC4)C2)n2ncnc2n1 (stereo not given)	4%	10	-10	-8.0%	2.9	19%	15%
CC(C)(C)c1cc(NC(=O)CSc2nnc(N)s2)n(-c2ccccc2)n1	-5%[15.4 µM]	8	-5	28µM*	4.1	13%	-4%
Cc1ccc(OCCNC(=O)c2ccccc2O)cc1	14%[15.4 µM]	-8	-3	-9.3%	1.5	17%	-10%
OCC1=C[C@@H](O)C2C=CO[C@@H](O[C@@H]3O[C@H](CO)[C@@H](O)[C@H](O)[C@H]3O)C12 (stereo not given in full)	nt	nt	-8	0.3%	nt	nt	10%
CC1CCN(C(=O)CSc2nnc(-c3cccnc3)n2C2CCCCC2)CC1	23%	-7	4	-1.7%	0.5	7%	3%
CCC/C(C)=C/c1ccc(CC)cn1	-6%[15.4 µM]	1	-5	nt	-3.6	-9%	-4%
Cc1ccc(OCC(=O)NN=C2c3ccccc3-c3ccccc32)cc1	10%	17	-1	6.6%	2.2	-4%	14%
Cc1ccc(-n2nc(C)cc2Nc2ncc(Cl)cc2Cl)cc1	11%	-6	2	0.4%	1.2	-1%	-26%
Cc1ccn2c(C(=O)N/N=C/c3ccc(Cl)cc3)c(C)nc2c1	-6%	4	-16	-2.1%	0.4	6%	3%
COc1ccc2c(c1)CCC/C2=N/OC(=O)c1ccccc1OC	-66%[inhibitor]	5	-7	-3.4%	-0.9	-7%	5%
COc1cc(OC)cc(C(=O)N[C@H](C(=O)Nc2nc(-c3ccc(F)c(F)c3)cs2)C(C)C)c1	0%	6	-5	nt	1.2	-3%	0%
Cc1ccc(C(=O)N(Cc2nnc(-c3ccccc3Cl)o2)C2CC2)o1	-20%	nt	-9	-4.2%	nt	nt	nt
O=C(OCc1c(F)cccc1Cl)c1cnc(Cl)c(Cl)c1	4%	5	-4	nt	nt	1%	2%
Cc1ccc(N2C(=O)CCC2=O)c(C)c1	11%[15.4 µM]	nt	-1	-0.6%	nt	nt	5%
CC(C)c1ccc(Nc2nnc(SCC(=O)c3nnc(-c4ccccc4)o3)s2)cc1	2%	2	-3	0.5%	29	-15%	-4%
CCCCCC1CCC(C(=O)O)CC1 (stereo not given)	5%	16	-15	0.9%	1.5	0%	5%
CCCNC(=O)Cc1c(O)c2ccccc2[nH]c1=O	2%	10	15	?	0.0	5%	11%
COc1ccc(C(C[N+](=O)[O-])C2(c3ccc(OC)c(OC)c3)C(=O)c3ccccc3C2=O)cc1 (stereo not given)	-11%	-3	-19	1.6%	2.1	?	-4%
CCn1cc(C(=O)N2CCc3ccccc32)c(=O)c2cc(S(=O)(=O)N3CCCC3)ccc21	-39%[inhibitor]	3	-17	1.9%	0.1	3%	12%

Complete entries from above:
CC(C)c1ccc(Nc2nnc(SCC(=O)c3nnc(-c4ccccc4)o3)s2)cc1 is listed with gsp ag = 2%; TRPV1 PAM = 2; D2 PAM = -3; ClpP mod = 0.5%; Menin MLL FP FL = 29; Sfp PPTase inh = -15%; gsp antagonist = -4%
COc1ccc(/C=C(\NC(=O)c2ccc(C)cc2)C(=O)NCC2CCCO2)cc1 (stereo not given) is listed with gsp ag = -43%[inhibitor]; TRPV1 PAM = 9; D2 PAM = -2; ClpP mod = -1.6%; Menin MLL FP FL = 4.6; Sfp PPTase inh = 12%; gsp antagonist = -5%

Next structures follow:
SMILES	gsp ag	TRPV1 PAM	D2 PAM	ClpP mod	Menin MLL FP FL	Sfp PPTase inh	gsp antagonist
COc1ccc(-c2cc(C(F)(F)F)c(C#N)c(SCC(=O)Nc3ccccc3C#N)n2)cc1	?	2	-15	-6.7%	?	9%	6%
O=C(c1cc(C2CC2)nc2ccc(Br)cc12)N1N=C(C(F)F)CC1(O)C(F)F (stereo not given)	-6%	-39	4	1.3%	2.8	-1%	-10%
CNC(=S)/N=C/NOCc1c(Cl)cccc1Cl	0%[15.4 µM]	8	-4	nt	0.6	-3%	11%
O=C(/C=C/c1cccc([N+](=O)[O-])c1)OC1CCCCC1=O (stereo not given)	-6%	-9	-4	1.4%	1.2	19%	3%
Cc1noc(C(=O)NCC2CCCO2)c1Cl (stereo not given)	1%	18	-1	-0.4%	-3.5	16%	7%
COc1ccc(NC(=O)C(F)(F)F)cc1OC	-29%	-3	-22	-1.5%	1.3	-2%	8%
O=c1c2c3c(sc2nc(NCCO)n1CCc1ccccc1)CCCCC3	?	-17	-7	-1.2%	2.3	7%	?
COC(=O)c1cc(C#N)c(Oc2ccccc2OC)nc1C	20%	nt	1	0.9%	-0.9	-3%	-11%
CCOc1ccc(NC(=O)COC(=O)CCS(=O)(=O)c2ccc(C)cc2)cc1	6%[15.4 µM]	-7	-12	nt	-0.9	-4%	13%
Cc1ccc(S(=O)(=O)N(CC(=O)N2CCC(C)CC2)Cc2ccccc2F)cc1	-24%	-8	-14	-1.9%	1.9	-9%	-16%
CCNC1CCC(Nc2ccnc3cc(Cl)ccc23)CC1 (stereo not given)	-30%	nt	-3	nt	nt	nt	4%
CN(CCC1CCOCC1)Cc1cn[nH]c1-c1ccc(-c2ccccc2)cc1	-2%	3	-10	-4.5%	-2.5	-4%	-3%
O=C(Nc1cc(Sc2nc3ccccc3s2)cc([N+](=O)[O-])c1)c1ccccc1	3%	-1	?	-0.5%	2.1	15%	3%
CC1(C)CCC(=O)N2CC[C@H]3C[C@H](OC(=O)Nc4ccc(Br)cc4)C[C@@H]1[C@H]32	nt	-5	-48	-0.3%&-1.4%	-2.9	-14%	-8%
CC(=O)Nc1ccc(NC(=O)c2c(C)c(-c3ccccc3)nc3ccccc23)cc1	2%[15.4 µM]	nt	0	0.1%	nt	nt	-10%
C=CCn1c(SCC(=O)NC2CC2)nnc1C1CC1	20%	0	1	-1.9%	-5.7	4%	15%
O=C(CCc1ccccc1)Nc1ccc2c(c1)OCCO2	?	-8	-4	28µM*	-0.7	-1%	15%
